Source: PubChem (National Center for Advancing Translational Sciences (NCATS))
TRPML1 agonist – activates the human TRPML1 channel; activation, % (no concentration beside the values); AID 624414; Q9GZU1; TRPML1-expressing cells, Ca2+ dye fluorescence, FDSS; host cell line not named in the record; reference of the full effect not given here; 410,000 compounds, 0.12% hits; in the data active = activation above about 50%; inconclusive = about 30% to 50%; inactive = below about 30%; also: 0% is about no effect; the text of the record puts the active cut at 80%
Target sequence (Q9GZU1 whole entry, looked up): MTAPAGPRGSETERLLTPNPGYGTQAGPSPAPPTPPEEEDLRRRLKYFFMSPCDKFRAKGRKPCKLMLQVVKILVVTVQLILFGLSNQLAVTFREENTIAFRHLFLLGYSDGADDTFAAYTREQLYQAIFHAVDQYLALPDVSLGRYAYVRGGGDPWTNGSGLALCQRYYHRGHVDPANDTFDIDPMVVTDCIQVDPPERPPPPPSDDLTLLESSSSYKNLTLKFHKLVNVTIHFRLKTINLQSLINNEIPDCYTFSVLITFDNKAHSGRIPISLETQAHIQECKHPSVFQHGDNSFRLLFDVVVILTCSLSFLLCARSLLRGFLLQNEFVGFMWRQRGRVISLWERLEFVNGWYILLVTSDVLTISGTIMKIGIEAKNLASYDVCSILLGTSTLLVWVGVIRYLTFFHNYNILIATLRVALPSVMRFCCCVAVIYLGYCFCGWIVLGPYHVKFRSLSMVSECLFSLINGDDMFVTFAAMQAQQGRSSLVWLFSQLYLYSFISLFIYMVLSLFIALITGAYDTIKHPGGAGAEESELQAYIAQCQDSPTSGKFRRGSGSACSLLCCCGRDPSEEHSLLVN
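Cells: TRPML1-DL, 1X Tet inducer, ~16 h at 37 degrees C/5% CO2. Dye: ABD Ca8 no-wash + quencher, 45-90 min RT. Read: 10 s baseline, compound add, 110 s agonist phase; 54-4 EC80 (4uM final), 110 s antagonist phase.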
gsp ag – activates gsp, the McCune-Albright syndrome mutation | 340,000 compounds, 0.13% hits | gsp mutant cells, cAMP HTRF, 30 min; control for the full effect not named in the record | Potency, µM (series often up to 76.9 µM), without a hit: at the top dose activation (cAMP increase), hits mostly activators | AID 624287; active = well fitted activation curve with a large enough effect; inconclusive = small, poorly fitted or top-dose-only effect, or another doubt; inactive = no such curve, though single readings can be large or run the other way; cell line not stated here;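 also: phosphodiesterase inhibitor Ro 20-1724 added with compounds to block cAMP breakdown; potency is read from the fitted curve at half-maximal effect; nearly all actives have a fitted effect of over 60% in size; about a fifth of the inactives were tested at one dose only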
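Cells in DMEM/10% FBS with G418 were pretreated with compounds in DMSO plus […] (300 uM stock) for 30 min at 37C. cAMP was measured by HTRF (cAMP-d2 plus anti-cAMP antibody-K) after 30 min at room temperature.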
TRPML1 blocker – blocks the human TRPML1 channel | activity change, negative = inhibition, % (test concentration not listed) | TRPML1-inducible cells, Ca2+ dye fluorescence, FDSS; stronger effect = lower value; inhibition of EC80 agonist-evoked calcium signal | AID 624415 | 390,000 compounds, 0.02% hits; in the data active means activity change below about -50%; inconclusive means about -30% to -50%; inactive means above about -30%;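 also: stimulus is agonist 54-4 at its EC80 concentration; % is scaled to controls: 0 for no effect and ±100 for the full control effect; compound concentration not given in the record; the text of the record puts the active cut at -80%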
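TRPML1-DL cells, Tet-induced overnight (~16 h, 37 °C) at 1,500 cells/well, were loaded with Ca8 no-wash dye plus quencher for 45-90 min at room temperature. Compounds were pinned during FDSS kinetic reading; agonist 54-4 at EC80 (4 uM final) then added.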
gsp antag – antagonists of gsp mutant (McCune-Albright syndrome) | 340,000 compounds, 0.4% hits | AID 624288 | Potency, µM (series often up to 76.9 µM), for the others: at the top dose activity change, negative = inhibition, usual class: inhibitors | gsp-mutant cells, cAMP HTRF, 30 min; control for the full effect not named in the record; active = falling curve of any shape with a large fitted effect; inconclusive = falling curve, mostly with a smaller effect; inactive = flat or rising curve; cell line not stated here;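 also: intracellular cAMP measured with PDE inhibitor Ro 20-1724 present during compound exposure; potency is read from the fitted curve at half-maximal effect; % is scaled to controls: 0 for no effect and ±100 for the full control effect; nearly all actives have a fitted effect of over 65% in size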
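Measurement of cellular cAMP by homogeneous time-resolved fluorescence following a 30 min compound exposure at 37C. The PDE inhibitor […] was present throughout; the assay buffer was DPBS with 0.05% BSA and 0.005% Tween 20.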
ClpP mod – qHTS Assay for Activators of ClpP. ATP-dependent Clp protease proteolytic subunit (Bacillus subtilis (strain 168)), P80244. purified B. subtilis ClpP, FRET peptide cleavage, 20 min. Potency, µM (doses to about 57.5 µM), without a hit: top-dose activity change, negative = active. 340,000 compounds, 1.9% hits; active = well fitted falling curve with a large enough effect; inconclusive = small, poorly fitted or top-dose-only effect; inactive = no such curve, though single readings can be large or run the other way; also: potency is read from the fitted curve at half-maximal effect; the source files actives as falling curves though it sought activators and does not explain the sign; nearly all actives have a fitted effect of over 65% in size; many hits overshoot -100%
Target sequence (P80244 whole entry, looked up): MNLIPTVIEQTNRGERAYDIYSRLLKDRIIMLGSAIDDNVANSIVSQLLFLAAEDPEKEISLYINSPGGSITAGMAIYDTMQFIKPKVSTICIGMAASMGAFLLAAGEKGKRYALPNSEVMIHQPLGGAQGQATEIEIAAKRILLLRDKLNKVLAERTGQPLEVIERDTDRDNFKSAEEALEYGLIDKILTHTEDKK
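Buffer: 100 mM Tris/HCl pH8, 100 mM KCl, 0.05% low protease BSA, 2.5% glycerol, 0.01% Tween-20. ClpP 10 microg/mL final; 20 min RT; delta FRET normalized to ADEP and DMSO controls.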
Menin-MLL FL inh – displaces fluorescein MLL peptide from human menin. FP activity change, % at 61.4 µM. Fluorescence polarization, fluorescein-MLL peptide displacement from menin. AID 1766. 290,000 tested, under 10 active; inconclusive = falling polarisation curve, or a change in total fluorescence; inactive = total fluorescence flat and polarisation flat or rising; no compound was filed as active; the % refers to the polarisation; negative = inhibition;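 also: % of control where 0% means no effect; inhibitors lower the polarisation; unlabelled MLL peptide was the positive control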
* marks the source's active call; other numbers are inactive results; ? = inconclusive; . = not tested or not shown; & = joins results of further samples; [ ] = dose if it differs, or a comment. Compounds were not picked by outcome; overall some 2.1% were active at least once.

SMILES	TRPML1 agonist	gsp ag	TRPML1 blocker	gsp antag	ClpP mod	Menin-MLL FL inh
COc1ccc(/C=C/C(=O)Nc2cccc(S(=O)(=O)N3CCOCC3)c2)cc1OC	0.4	-15%[15.4 µM]	-16	-27%	28µM*	.
CCOC(=O)C1(CC)NC(c2ccc(OC)c(OC)c2)C2C(=O)N(c3cccc(C(C)=O)c3)C(=O)C21 (configuration not stated)	0.2	-1%	33	-9%	1.0%	-1.4
O=C(Cc1ccccc1)NCCSCc1ccccc1	0.1	16%	-27	5%	-1.3%	-1.0
CCc1nnc(NC(=O)CSc2nnc(C3CCCCC3)n2-c2cccc(Cl)c2)s1	0.5	-34%	-7	-15%	1.4%	-0.3
CCN(CC(=O)N1CCC(C(N)=O)CC1)S(=O)(=O)c1cc(Cl)ccc1Cl	0.2	9%[15.4 µM]	-5	-4%	.	.
CCOC(=O)N1CCN(CC(=O)Nc2c(C(=O)OC)[nH]c3ccccc23)CC1	0.5	-49%[inhibitor]	-10	-6%	-21%	2.6
CC(NC(=O)Cn1cnc([N+](=O)[O-])n1)c1ccccc1 (configuration not stated)	-0.2	-57%[inhibitor]	15	5%	-0.8%	3.8
COc1ccc(CC2(CO)CCN(Cc3cnn(C)c3)CC2)cc1	0.9	6%[15.4 µM]	3	-4%	.	-1.4
CCOC(=O)COc1nc(-c2ccccc2)cc(-c2ccco2)c1C#N	0.6	9%[15.4 µM]	2	?	0.9%	0.9
O=C(CCN=C1NS(=O)(=O)c2ccccc21)OCc1ccccc1	-0.3	7%	-8	-1%	0.9%	.
Cc1c(C#N)c2ccccc2n1C	8.0	0%	8	8%	.	7.4
COc1cc(C(=S)N2CCOCC2)ccc1OS(=O)(=O)c1ccc(NC(C)=O)cc1	0.1	4%[15.4 µM]	1	6%	.	-1.3
COc1ccc(C(=O)c2coc3ccc(OC(C)=O)cc23)cc1	0.7	12%[15.4 µM]	11	?	-0.3%	1.5
CCSCCOC(=O)C1=C(C)NC(=O)NC1c1ccc2c(c1)OCO2 (configuration not stated)	-0.9	3%	10	-5%	0.6%	6.8
COc1cccc(NC(=O)Cc2csc(NC(=O)Nc3ccccc3OC)n2)c1	1.8	-25%	8	-11%	-6.9%	.
COc1ccc(NC(=O)c2nc[nH]c2C(=O)NCC(=O)OC(C)(C)C)cc1	2.8	.	-8	-7%	0.1%	1.2
COc1ccc(NS(=O)(=O)c2cccc(C(=O)N3CCN(Cc4cc(OC)ccc4OC)CC3)c2)cc1	0.9	23%	-4	?	-1.6%	.
O=C(c1ccc([N+](=O)[O-])cc1)N1CCSC1c1ccccc1 (configuration not stated)	1.4	0%	-26	-9%	-2.4%	13
COc1ccc(C(=O)COC(=O)CCN=C2NS(=O)(=O)c3ccccc32)c(OC)c1	0.3	-22%	-13	18%	1.8%	.
CCOc1cc(C=O)ccc1OCC(=O)N1CCCC1	1.7	-69%[inhibitor]	18	3%	-7.1%	-1.2
Oc1cc(Br)ccc1C=Nc1ccc(N2CCCCC2)cc1	2.3	30%	23	6%	1.6%	?
Cc1noc(C)c1C(=O)N1CCN(S(=O)(=O)c2cccs2)CC1	-0.2	-1%	10	12%	0.7%	.
CCN1C(=O)[C@H]2[C@@H](c3ccc(C)cc3)N3C(=O)N(c4ccc(C)cc4)C(=O)[C@@]3(C)[C@H]2C1=O	-0.4	.	49	6%	2.2%	1.3
Cc1ccc(S(=O)(=O)N2[C@@H](c3ccccc3F)C(C(=O)O)=CC[C@H]2c2cccc(C)c2)cc1	-0.3	-31%[inhibitor]	-4	-7%	-1.4%	.
CC(C)(C)CN1C(=O)C(=O)NC[C@H]1Cc1cccc2ccccc12	2.9	.	27	-3%	-0.3%	1.2

The list goes on.
SMILES	TRPML1 agonist	gsp ag	TRPML1 blocker	gsp antag	ClpP mod	Menin-MLL FL inh
COc1ccc(C(CC(=O)O)NC(=O)OC(C)(C)C)cc1 (configuration not stated)	0.2	-1%	37	-2%	0.9%	1.3
CCN(Cc1ccccc1)C(=O)Cn1c(C(C)O)nc2ccccc21 (configuration not stated)	-0.2	-11%	12	6%	-0.6%	-4.5
COc1ccccc1NC(=O)CSc1nccc(=O)[nH]1	3.2	-24%	-10	-6%	-0.5%	3.0
Fc1ccc(C2c3cccn3CCN2C(=S)Nc2cccc(Br)c2)cc1 (configuration not stated)	-0.1	-9%[15.4 µM]	-8	?	-0.2%	4.0
Cc1cc(=O)c2n(Cc3ccccc3Cl)nc[n+]2[nH]1	-1.0	?	-8	8%	0.6%	3.2
CC(C)NC(=O)N(C)C[C@H]1OCCCC[C@@H](C)Oc2ccc(N(C)C)cc2C(=O)N([C@H](C)CO)C[C@@H]1C	0.2	.	-21	.	-8.3%	.
O=C(N/N=C\C=C\c1ccc(Br)cc1)c1ccc2c(c1)OCO2	-0.3	-19%	-4	?	.	-3.4
Cc1ccc(Nc2nc(N)nc(CCl)n2)c(C)c1	4.5	-1%	1	19%	-2.0%	-2.0
CCCc1nc(SCC(=O)N2CCC(Cc3ccccc3)CC2)c2c(=O)n(C)c(=O)n(C)c2n1	0.0	?	5	25µM*	0.7%	6.8
O=C(NCc1ccco1)C1CCN(S(=O)(=O)c2ccc(-n3cnnn3)cc2)CC1	0.0	-3%	-14	-7%	-0.3%	0.1
Cc1cccc(C(=O)Nc2nc3c(s2)CCCC3)c1	1.4	.	22	.	-6.8%	.
CC1Oc2ccccc2N(CC(=O)NC2CCCCC2)C1=O (configuration not stated)	0.4	-2%[15.4 µM]	0	1%	.	9.0
Cc1ccccc1NC(=O)C12CC3CCC1(C)C3(C)CO2 (configuration not stated)	-0.7	-1%[15.4 µM]	-2	9%	.	-1.6
Cc1ccc(C)c(NC2=CC(=O)CC(C)(C)C2)c1C#N	-0.4	-3%	-16	10%	-0.5%	-0.1
CC1=C(C(=O)Nc2ccc(C)cc2)C(c2ccc(C)o2)C2=C(CC(C)(C)CC2=O)N1 (configuration not stated)	-0.9	-14%	-9	-5%	-7.4%	2.0
Cc1cc(S(=O)(=O)N2CCCC(C)C2)ccc1-n1cnnn1 (configuration not stated)	-0.9	17%[15.4 µM]	31	9%	-0.7%	0.1
Cc1cc(C)n(-c2cccc(Cl)c2C#N)n1	-0.2	?	-18	-20%	.	1.4
O=C(CCNS(=O)(=O)c1ccccc1)NCCCSc1ccccc1	0.6	-73%[inhibitor]	9	7%	-3.3%	.
Cn1c(=O)c(=O)n(C)c2cc(S(=O)(=O)NCc3ccc(Cl)cc3)ccc21	0.0	4%	-3	3%	-25%	9.7
CCCCNC(=O)N1CCN(c2ccccc2OCC)CC1	2.6	-1%[15.4 µM]	-8	4%	.	-2.6
CC(=O)NC12CC3CC(C1)CC(C(=O)Nc1cccc(S(=O)(=O)N4CCCCCC4)c1)(C3)C2	0.7	-15%	-20	4%	-7.7%	.
COc1cccc(CNC(=O)C2CCN(c3nc4ccc(Cl)cc4[nH]3)CC2)c1	1.0	.	-15	.	-1.2%	.
Cc1ccc(C(O)c2ncc(-c3ccccc3F)[nH]2)cc1F (configuration not stated)	0.4	.	22	.	0.9%	.
Oc1ccccc1N=Nc1nc(-c2ccccc2)c(-c2ccccc2)[nH]1	2.2	1%	69	?	-2.3%	15
CN1CCC(=O)N([C@H](COc2ccccc2)Cc2ccccc2)CC1	-0.5&-0.5	24%	-17	2%	-2.4%&1.8%	4.2

Other entries follow.
SMILES	TRPML1 agonist	gsp ag	TRPML1 blocker	gsp antag	ClpP mod	Menin-MLL FL inh
O=[N+]([O-])c1ccc(Oc2ccc(S(=O)(=O)N3CCOCC3)cn2)cc1	0.0	?	13	15%	?	.
CC(C)CC(=O)Nc1ccc2oc(-c3cccnc3)nc2c1	0.7	-1%	-8	3%	?	1.5
Cc1nn(-c2ccccc2)c(C)c1/C=N\NS(=O)(=O)c1ccc(Cl)cc1	0.5	-10%	1	-29%	-0.6%	0.8
COc1ccc(-c2onc3ccc(C(=O)/C=C/N(C)C)cc23)cc1	-0.5	-5%	4	-17%	.	?
NC(=O)CSc1c[nH]c2ccccc12	0.1	-11%	15	-10%	0.9%	-0.3
CC(C)(C)CNC(=O)c1cccc2c1C(=O)c1ccc(-c3cc4ccccc4o3)cc1S2(=O)=O	0.7	2%	-1	-4%	19%	.
O=C(CC1C(=O)NCCN1Cc1ccccc1C(F)(F)F)NCCN1CCOCC1 (configuration not stated)	-0.8	?	-6	15%	-6.3%	?
Cc1cc(NC(=O)C2CC(=O)N(c3cccc(Cl)c3)C2)no1 (configuration not stated)	-0.2	-23%	5	-9%	.	0.0
CCOC(=O)c1ccccc1NC(=O)CSc1nc2cn(CC)nc2c(=O)n1Cc1ccc(Cl)cc1	-0.8	.	-11	.	-1.1%	.
CSc1nn(Cc2cccc(F)c2)c(N(C(C)=O)C(C)=O)c1S(=O)(=O)c1ccccc1	0.7	.	19	.	-0.5%	.
CCCN(CC(=O)Nc1ccccc1OC)C(=O)CNC(=O)c1ccc(C)s1	1.7	0%	-4	10%	-1.6%	.
Cc1cccc(N2CN(Cc3cccnc3)CNC2=S)c1C	0.9	26%	17	9%	-2.4%	5.0
CC(C)CNC(=O)c1ccccc1NC(=O)c1ccc(CN2CCOCC2)cc1	1.2	-46%[inhibitor]	-19	7%	-6.3%	0.8
O=C(N/N=C/c1ccoc1)c1ccccc1	0.5	12%	35	?	-0.4%	0.3
C/C(CC(O)(/C=N/O)c1ccccc1)=N\O (configuration not stated)	0.3	0%	-11	6%	-0.6%	1.4
C#CCn1cc(CNC[C@H]2O[C@@H](n3cnc4c(=O)[nH]c(N)nc43)[C@H](O)[C@@H]2O)c2ccccc21	-0.4	.	23	.	-0.8%	.
O=C(NCc1ccco1)c1ccc2c(c1)N(Cc1ccc(Cl)cc1)C(=O)c1ccccc1S2(=O)=O	-0.7	.	-15	.	-17%	.
O=c1c2ccccc2cnn1Cc1n[nH]c(=S)n1-c1ccc(F)c(Cl)c1	0.0	61%[15.4 µM]	-8	6%	.	-3.6
O=c1cc(CNC2CCCCC2)c2ccccc2[nH]1	-0.2	-16%	2	-5%	-1.8%	0.9
O=S(=O)(c1ccc(Cl)cc1)N1CCC(O)(CN2CCN(Cc3ccccc3)CC2)CC1	0.2	-2%[15.4 µM]	-2	16%	.	-5.3
O=C(c1cccs1)N1CCN(Cc2nc3ccccc3c(=O)[nH]2)CC1	0.5	-16%	9	2%	4.0%	-1.3
COC12NC(=O)N(C)C1(OC)C(=O)N(C)C(=O)N2C (configuration not stated)	1.2	-4%	24	12%	1.7%	0.5
